Assay outcomes from PubChem.
AID504770: E. coli YBA685 growth inhibition, screen for V. cholerae RctB inhibitors | hit rate 0.27% among 130,000 | z-score (no concentration beside the values) | E. coli YBA685 rctB-dependent plasmid, OD600 growth, 3 h; stronger effect = lower value;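 active = z-score under -2 on both plates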;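 note: wells of about 30 µL received 100 nL stock; score is relative to mean and SD of the test wells; the first replicate is given; strong numbers were not always called active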
CapD inh: blocks the Bacillus anthracis CapD enzyme | AID 492967 | hit rate 0.23% among 140,000 | z-score (no concentration beside the values) | purified CapD enzyme, fluorescence intensity read-out; stronger effect = lower value; some hits fall short of the stated cut;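 active = z-score under -4 in either of two replicates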;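 note: stock transfer was 100 nL into about 40 µL; score is relative to mean and spread of the plate; one replicate is shown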
An asterisk follows results filed as active.

CCSc1nnc(NC(=O)CCC(=O)OC2CCC(C)C(C)C2)s1 (stereo not given) was read as AID504770 1.2 and CapD inh 0.1.
`Cn1c(SCc2ccoc2C(=O)O)nnc1-c1ccccc1` gave AID504770 -1 and CapD inh -0.645.
Screening COc1cc(O)c(/C=N/NC(=O)c2cc3ccccc3s2)c(OC)c1 returned CapD inh -1.02.
Cc1cc(C)c(S(=O)(=O)c2ccccc2C)c(NCc2ccccc2)n1 was read as CapD inh 9.05.
COc1ccc(-c2nc3ccccc3c(=O)n2NC(=O)/C=C/c2ccc(Cl)cc2)cc1OC was read as CapD inh -0.74.
`COc1ccc(/C=C/C(=O)Nc2cc(C)nc3ccccc23)cc1OC` gave AID504770 0.15 and CapD inh 49.4.
Screening Cc1ccsc1C(=O)OCC(=O)Nc1sccc1C#N returned AID504770 -0.25.
For N=C1CC(=O)N=C2SC(C(F)(F)F)=NN12 the results were CapD inh 0.19.
C=CCn1c(-c2cccc(C)c2)nc2ccccc21 was read as AID504770 -0.45 and CapD inh 0.125.
Screening CC1=Nc2nc(N3CC(C)OC(C)C3)c(C#N)c3c4c(nc(c23)N1)N(c1ccccc1)C(=O)C4 (stereo not given) returned AID504770 -0.2.
C[C@@H]1CCC[C@H](C)N1 was read as CapD inh 0.1.
Screening CCOC(=O)c1cnc(Sc2ccc(Cl)cc2)nc1C(F)(F)F returned AID504770 0.2 and CapD inh 0.325.
COc1cc(/C=N/NC(=S)NCC2CCCO2)ccc1OC(=O)c1ccco1 (stereo not given) was read as AID504770 0.35.
For COc1nc(NC(C)(C)C)nc(Oc2ccc(=O)n(C)n2)n1 the results were AID504770 0.45 and CapD inh -0.235.
For CCOC(=O)/C(C#N)=C\c1ccc(N2CCOCC2)cc1 the results were AID504770 0.15.
`COC(=O)c1ccccc1NC(=O)Cn1ccnc1` gave AID504770 -0.7 and CapD inh -0.095.
Screening COc1cccc(NC(=O)CCCN2C(=O)C3C4C=CC(C4)C3C2=O)c1 (stereo not given) returned AID504770 -0.3 and CapD inh -0.105.
NC(=O)N/N=C/c1ccc(OC(=O)c2ccco2)cc1 was read as AID504770 -0.95 and CapD inh 0.03.
For O=C(NCCc1ccccc1)c1nnc(-c2ccc3c(c2)OCO3)o1 the results were AID504770 -0.6 and CapD inh 1.71.
c1ccc2cc(Cn3ccnc3)ccc2c1 was read as AID504770 -1.3.
O=C(Cn1c2ccccc2c(=O)c2ccccc21)Nc1ccc(Oc2ccc3ccccc3c2Cl)c(Cl)c1 was read as CapD inh 4.89.
For CCOC(=O)c1ccc(NC(=O)c2cccc3c2C(=O)N(Cc2cccnc2)C3)cc1 the results were AID504770 -1 and CapD inh -2.38.
Screening Ic1ccc(Nc2nc(Nc3ccccc3)nc(N3CCOCC3)n2)cc1 returned AID504770 0.55 and CapD inh -0.36.
`CSc1cc(-c2ccc(Cl)cc2)[nH]c(=O)c1C#N` gave AID504770 -0.75 and CapD inh 4.86.
For CCCOC1OC(=O)c2c1ccc(OC)c2OC (stereo not given) the results were CapD inh -0.045.
`CC(C)Nc1nc(Cl)nc(NCCO)n1` gave AID504770 1.1.
c1ccc(CC2=NNC(Cc3ccccc3)=NN2)cc1 was read as AID504770 0.2 and CapD inh 0.53.
`CCN(Cc1ccc2c(c1)OCCO2)C(=O)c1ccc(=O)n(Cc2ccccc2)n1` gave AID504770 -1.25.
For Cc1ccc(C(c2c(C)n(C)n(-c3ccccc3)c2=O)c2c(C)n(C)n(-c3ccccc3)c2=O)cc1 the results were CapD inh -0.045.
Screening O=C1N/C(=C/c2ccsc2)C(=O)N1c1ccccc1 returned AID504770 1.15 and CapD inh -0.235.
`CCS(=O)(=O)Nc1cccc(C(=O)CC2(O)C(=O)Nc3ccccc32)c1` (stereo not given) gave AID504770 0.45 and CapD inh -0.015.
`O=C(Nc1nc2ccccc2[nH]1)C1CC(=O)N(Cc2ccccc2)C1` (stereo not given) gave AID504770 1.95.
Screening COc1ccc(OCC(=O)N2c3ccccc3C(N(C(=O)COc3ccc(OC)cc3)c3ccccc3)CC2C)cc1 (stereo not given) returned CapD inh -1.64.
O=c1[nH]c(Nc2nc3ccccc3o2)nc2c1CCCC2 was read as AID504770 0.25 and CapD inh 30.
`Cc1nc(SC(C(=O)O)c2ccccc2)cc(-c2ccccc2)n1` (stereo not given) gave AID504770 1.25 and CapD inh 0.565.
Screening COC(=O)c1ccc2c(c1)N=C(Cl)c1ccccc1S2 returned AID504770 -0.25.
For COC(=O)c1cc2c(ccn2-c2ccc(F)cc2)n1CC(=O)N1CC(C)CC(C)C1 (stereo not given) the results were AID504770 0.65.
For CCN(c1ccccc1)S(=O)(=O)c1ccc(F)c(C(=O)Nc2ccc(Cl)cc2)c1 the results were CapD inh -0.05.
COc1ccc(S(=O)(=O)N(CC#N)Cc2ccco2)cc1OC was read as AID504770 -1.05 and CapD inh 0.185.
Screening COC(=O)c1cc(-c2ccc(C=C3C(=O)N(C)C(=O)N(C)C3=O)o2)ccc1Cl returned CapD inh 0.605.
For Cc1cc(/C=C2/C(=O)NC(=S)N(Cc3ccco3)C2=O)c(C)n1C1CCCCC1 the results were AID504770 1.3 and CapD inh -0.145.
Screening C=CC1CC2CCN1C(C(=O)c1ccnc3ccc(OC)cc13)C2 (stereo not given) returned CapD inh 32.1.
CCC(=NC(C)CCCN(CC)CC)c1c(O)n(-c2ccc(OC)cc2)c(=O)[nH]c1=O (stereo not given) was read as CapD inh 0.
Cc1ccc(NC(=O)C2CCCN(S(=O)(=O)c3c(C)n[nH]c3C)C2)cc1 (stereo not given) was read as AID504770 -0.5 and CapD inh -0.18.
Cc1cc(NCC2CC2)n2nc(Nc3cc(Cl)ccc3C)nc2n1 was read as AID504770 0.65 and CapD inh 0.835.
COc1ccc(OC)c(N2C(=O)CC(Sc3nc4ccccc4s3)C2=O)c1 (stereo not given) was read as AID504770 0.5 and CapD inh 0.07.
`CC1(C)CO/C(=C/C(=O)c2ccncc2)N1` gave AID504770 -0.75 and CapD inh -1.39.
CNCC(O)Cn1c2c(c3ccccc31)CCCC2 (stereo not given) was read as AID504770 -0.7 and CapD inh 0.815.
For CCOC(=O)C1CCN(CN2C(=O)C3(SCC(=O)N3c3ccc(C)cc3)c3ccccc32)CC1 (stereo not given) the results were CapD inh -1.09.
CC(=O)Nc1c(C(=O)O)[nH]c2ccccc12 was read as AID504770 0.05 and CapD inh 3.08.
COc1ccc(C(=O)Nc2nncs2)cc1S(=O)(=O)N1CC(c2ccccc2)CC1=O (stereo not given) was read as AID504770 0.45 and CapD inh -0.395.
`COc1ccc(CNC(=O)c2cnn3cc(Br)cnc23)cc1` gave AID504770 -0.3 and CapD inh 0.02.
O=C(c1ccccc1)c1cn(Cc2cccc(F)c2)c2ccc(F)cc2c1=O was read as AID504770 -0.15 and CapD inh 0.6.
Screening O=C(c1cccc(Cl)c1)N(Cc1cc2ccccc2[nH]c1=O)C1CCCCC1 returned AID504770 0.05 and CapD inh 6.19.
CN(C(=O)CSc1nnnn1C)c1ccccc1 was read as AID504770 0.1.
Screening Cn1cc(C(=O)NCC2COc3ccccc3O2)c(=O)c2cc(S(=O)(=O)N3CCCCC3)ccc21 (stereo not given) returned AID504770 0.2 and CapD inh -0.09.
For COc1ccc(/C(C)=N/OCc2nc3c4c(-c5ccccc5)c(-c5ccccc5)oc4ncn3n2)cc1OC the results were CapD inh -0.45.
`COc1ccc(CCNC(=O)CSc2nnc3sc4ccccc4n23)cc1OC` gave CapD inh 0.28.
`Cc1ccc2cc(C#N)c(NCc3ccccc3)nc2c1` gave AID504770 1.95.
Cc1ccsc1CCNC(=O)c1cc(-c2ccc(Cl)cc2)n[nH]1 was read as AID504770 0.95 and CapD inh 0.615.
Screening Cc1ccccc1NC(=O)c1c(NC(=O)c2ccco2)sc2c1CCC2 returned AID504770 -0.1 and CapD inh 1.59.
`O=C(NCC1c2ccccc2CCN1C(=O)CN1CCOCC1)C1CCCCC1` (stereo not given) gave AID504770 -0.1 and CapD inh 0.26.
`CCOC(=O)c1c(NC(=O)c2ccc(C)c([N+](=O)[O-])c2)sc(C(=O)Nc2ccccc2C(F)(F)F)c1C` gave CapD inh 0.04.
`COc1ccc(-c2nnc(SCc3ccc(Cl)cc3Cl)o2)cc1` gave CapD inh -0.005.
COCCCNS(=O)(=O)c1c(C)c(C)cc(C)c1C was read as CapD inh 0.455.
Screening Cc1cccc(Nc2ncc3ncn(-c4cccc(C)c4)c3n2)c1 returned AID504770 0.5 and CapD inh 2.83.
COc1ccc(C(=S)N2CCC(C)CC2)cc1 was read as AID504770 0.6 and CapD inh 4.82.
For Brc1ccccc1C1OCC2(CO1)COC(c1ccccc1Br)OC2 (stereo not given) the results were AID504770 0 and CapD inh -0.095.
Cc1cc(C(=O)NN)ccc1[N+](=O)[O-] was read as CapD inh -0.065.
Cc1nc(N2CCOCC2)c2c(C)c(C(=O)N3CCN(c4ccc([N+](=O)[O-])cc4)CC3)sc2n1 was read as CapD inh -0.535.
`O=C1C(C=NCc2ccco2)=C(O)c2ccccc21` gave AID504770 -0.05 and CapD inh -1.93.
`CS(=O)(=O)Nc1ccc(/C(N)=N/OC(=O)Nc2ccccc2)cc1` gave AID504770 -0.55 and CapD inh 1.01.
Screening Cc1ccoc1C(=O)Nc1ccccc1C(=O)O returned AID504770 0.65.
CCOC(=O)C1CCN(c2ncnc3c2c(-c2ccccc2)cn3-c2ccc(OCC)cc2)CC1 was read as CapD inh 0.13.
For COC(=O)C(Cc1c[nH]c2ccccc12)NS(=O)(=O)c1ccc(C)cc1 (stereo not given) the results were CapD inh -0.265.
COc1ccc(Cn2ccc3nc(C)c(C(=O)Nc4ccccc4)cc3c2=O)cc1 was read as AID504770 0 and CapD inh 2.49.
Screening C=CCN1/C(=C/C=C/c2n(C/C=C\S(=O)(=O)[O-])c3cc(C(=O)OCC)ccc3[n+]2CC)N(CC)c2ccc(C(=O)OCC)cc21 returned CapD inh 0.375.
Screening Cc1ccc(-c2c(O)c3cc(C)c(C)cc3c3oc(=O)sc23)cc1 returned AID504770 0 and CapD inh 12.4.
`CC1(CO)CSC(Nc2ccc(F)cc2)=N1` (stereo not given) gave CapD inh 0.46.
`O=C(O)C1CCN(c2cnccn2)CC1` gave AID504770 1 and CapD inh 0.09.
Screening CCN(CC)CCOc1nnc(-c2ccc(OC)cc2)c2ccccc12 returned CapD inh 0.005.
`COc1ccc(C2=N/C(=C\c3cc(Br)c(OC(C)=O)c(OC)c3)C(=O)O2)cc1[N+](=O)[O-]` gave CapD inh -0.735.
Screening CCOC(=O)c1cn2c(n1)sc1ccccc12 returned CapD inh -0.545.
For CC1CCN(Cn2c(=S)oc3ccccc32)CC1 the results were AID504770 -0.55 and CapD inh 47.2.
Cc1c(C(=O)NCCCN2CCCCC2)oc2ccc3c(c12)C(O)CC(C)(C)O3 (stereo not given) was read as AID504770 0.15 and CapD inh 14.1.
For CC1=C(C)C(=O)C(N2CCN(Cc3ccccc3)CC2)=CC1=O the results were AID504770 -0.55.
Screening Cc1cc(C(=O)NCc2ccc3c(c2)OCO3)nc2c1c(C)nn2-c1ccccc1Cl returned AID504770 -0.3 and CapD inh 2.
Screening CC(=O)Nc1cccc(NC(=O)CSc2nc3ccccc3o2)c1 returned CapD inh 0.06.
For Cc1ccccc1NC(=O)NC1CCN(C(C)C)CC1 the results were AID504770 -1.15 and CapD inh -0.685.
N#CC1=C(N)C(C#N)(C#N)C(c2ccccc2F)C2CCCC=C12 (stereo not given) was read as CapD inh -0.265.
For C=CCOc1ccc(CNc2ccc3[nH]c(=O)[nH]c3c2)cc1 the results were AID504770 -0.55 and CapD inh 6.24.
Screening Cn1c(SCC(=O)N2c3ccccc3CCc3ccccc32)nnc1C1CC1 returned AID504770 0.25.
`CC1=C(C(=O)Nc2ccccc2)C(c2ccncc2)C(C#N)=C(SCC(=O)Nc2ccc(Cl)cc2)N1` (stereo not given) gave CapD inh -0.795.
`CCOC(=O)CSc1nnc(CNC(=O)Cc2ccccc2)n1-c1ccc(OC)cc1` gave AID504770 0.15.
`CCOC(=O)CCc1ccc(C(=O)C(F)(F)F)o1` gave AID504770 -0.15 and CapD inh 0.375.
For O=C(Nc1cc2ccccc2oc1=O)c1ccc(Cl)cc1 the results were AID504770 2.35 and CapD inh 0.08.
For Cc1ccc(NC(=O)C(OC(=O)c2c(C)noc2C)c2ccccc2)cc1Cl (stereo not given) the results were AID504770 0.35.

Gathered by group: the compounds so far containing a furan ring, fused or not
`Cn1c(SCc2ccoc2C(=O)O)nnc1-c1ccccc1` gave AID504770 -1 and CapD inh -0.645.
COc1cc(/C=N/NC(=S)NCC2CCCO2)ccc1OC(=O)c1ccco1 (stereo not given) was read as AID504770 0.35.
NC(=O)N/N=C/c1ccc(OC(=O)c2ccco2)cc1 was read as AID504770 -0.95 and CapD inh 0.03.
COc1ccc(S(=O)(=O)N(CC#N)Cc2ccco2)cc1OC was read as AID504770 -1.05 and CapD inh 0.185.
Screening COC(=O)c1cc(-c2ccc(C=C3C(=O)N(C)C(=O)N(C)C3=O)o2)ccc1Cl returned CapD inh 0.605.
For Cc1cc(/C=C2/C(=O)NC(=S)N(Cc3ccco3)C2=O)c(C)n1C1CCCCC1 the results were AID504770 1.3 and CapD inh -0.145.
For COc1ccc(/C(C)=N/OCc2nc3c4c(-c5ccccc5)c(-c5ccccc5)oc4ncn3n2)cc1OC the results were CapD inh -0.45.
Screening Cc1ccccc1NC(=O)c1c(NC(=O)c2ccco2)sc2c1CCC2 returned AID504770 -0.1 and CapD inh 1.59.
`O=C1C(C=NCc2ccco2)=C(O)c2ccccc21` gave AID504770 -0.05 and CapD inh -1.93.
Screening Cc1ccoc1C(=O)Nc1ccccc1C(=O)O returned AID504770 0.65.
Cc1c(C(=O)NCCCN2CCCCC2)oc2ccc3c(c12)C(O)CC(C)(C)O3 (stereo not given) was read as AID504770 0.15 and CapD inh 14.1.
`CCOC(=O)CCc1ccc(C(=O)C(F)(F)F)o1` gave AID504770 -0.15 and CapD inh 0.375.
